NPYLR7 ag – activates Aedes aegypti NPYLR7 receptor; HEK293T NPYLR7/Galpha15, GCaMP6s calcium fluorescence; activation, % at 10 µM; 0.15% of 270,000 active; in the data active = activation above about 40%;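 also: 0% = vehicle and 100% = reference agonist at the receptor; some compounds past the cut are filed as inactive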
NPYLR7 ag max-min – second read-out of NPYLR7 ag, no call of its own (marks repeat the call); activation, %; measured here: Max-Min RFU normalised activation; some inactives read as strong as hits;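 span of the calcium signal over five minutes; 0% = vehicle and 100% = native peptide agonist; compound fluorescence can raise it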
* hit, by the source's call.

| molecule | NPYLR7 ag max-min | NPYLR7 ag |
| --- | --- | --- |
| C=CCN(Cc1ccccc1C)Cc1cccn1Cc1ccccc1F | 3.6 | 1.5 |
| CC(C)c1csc(C(=O)Nc2ccccc2C(=O)N(C)C)n1 | -3.2 | -2.2 |
| Cc1ccccc1NC(=O)c1ccc(CSc2ccc3ccccc3n2)cc1 | 4.5 | 5.3 |
| OC(CCN1CCCCC1)(c1ccccc1)C1CC2C=CC1C2 (stereo not drawn) | -8.3 | 6.3 |
| CC(C)OC(=O)C(N)Cc1ccccc1 (stereo not drawn) | -15.2 | -9.1 |
| Cc1nc(Cc2nnc(SCc3cc(=O)n4c(C)csc4n3)o2)cs1 | 1.7 | 2.9 |
| Cc1cccc(Cn2cc(C(=O)Nc3ccc(F)c(F)c3F)ccc2=O)c1 | 9.1 | 17.7 |
| O=C(CSc1ccc(-c2ccncc2)nn1)N1CCOCC1 | -2.7 | 7.7 |
| Cc1nc2sccn2c1C=NNc1ccc([N+](=O)[O-])cc1[N+](=O)[O-] | 1.1 | 1.9 |
| CCOC(=O)c1nn(-c2ccc(C)cc2)c(=O)cc1OS(=O)(=O)c1ccc2ccccc2c1 | 4.2 | 4.4 |
| CC(CNC(=O)C(=O)Nc1cnn(-c2ccncc2)c1)N(C)C1CC1 (stereo not drawn) | -1.6 | 2.1 |
| COc1cc(-c2nnc(SCCCC(=O)c3ccc(F)cc3)o2)cc(OC)c1OC | 0.5 | 2.0 |
| Cc1ccc(N(CCCCN2C(=O)c3ccccc3C2=O)C(=O)c2ccc(F)c(F)c2)cc1 | -9.3 | -1.8 |
| CCOC(=O)c1c(C)[nH]c(C(=O)OC2CCCCC2=O)c1C (stereo not drawn) | 7.4 | 1.8 |
| N#CCSc1ncnc2c1cnn2-c1ccccc1 | 9.2 | 3.5 |
| CN(C)S(=O)(=O)N1CCC(CO)(Cc2ccccc2Cl)CC1 | -1.5 | 1.8 |
| CN(Cc1cn[nH]c1-c1cccc(F)c1)C1CCCN(C2Cc3ccccc3C2)C1 (stereo not drawn) | -0.5 | 3.0 |
| Cc1cccnc1[C@H](C)NC(=O)Cc1cc2c(cc1Cl)OCCO2 | -7.5 | -3.5 |
| CCOC(=O)c1c(C)oc2nc(Cn3cc(C(F)(F)F)cc(Cl)c3=O)nc(N)c12 | 0.0 | -1.1 |
| Cc1ccc(-n2nnnc2CNC(=O)CCc2ccccc2)cc1C | -1.2 | 1.9 |
| CNC(=O)Cn1nc(-c2ccccc2)c2ccccc2c1=O | 4.5 | 2.6 |
| CN=C1NN=C(c2cc(C)n(-c3c(C)n(C)n(-c4ccccc4)c3=O)c2C)CS1 | 1.5 | 1.5 |
| CCOc1nn(CC)cc1-c1nnc(SCc2ccccn2)n1CC | 1.9 | -0.6 |
| Cc1[nH]c(=O)c2c(c1[N+](=O)[O-])COC2=O | 6.7 | 8.9 |
| FC(F)(F)c1cccc(C2c3cccn3CCCN2Cc2ccco2)c1 (stereo not drawn) | -9.6 | -11.1 |
| COc1cc(C2c3[nH]c4ccccc4c3CCN2C(=O)N[C@@H](C)c2ccccc2)ccc1Br (stereo partly drawn) | -13.8 | -4.4 |
| COc1cc(CNC(=O)CC2CC3CCC2C3)ccc1OCc1ccncc1 (stereo not drawn) | 5.2 | 10.1 |
| OCC1(Cc2ccccc2)CCN(Cc2ccc(Oc3ncccn3)cc2)CC1 | 10.5 | 5.9 |
| CCCCCCc1ccc(C(=O)N2CCCC(C(=O)NC3CCCC[C@H]3NC(=O)c3ccccc3)C2)cc1 (stereo partly drawn) | 23.3 | 22.1 |
| COC(=O)c1ccc(COC(=O)c2sc3ccccc3c2Cl)o1 | -4.5 | -4.0 |
| CCC1CN(CC(=O)NCc2scnc2-c2ccccc2)Cc2cc(OC)ccc2O1 (stereo not drawn) | 1.7 | 13.4 |
| Cc1cc(=O)[nH]c(N=C(N)N2CCN(C)CC2)n1 | -1.8 | 2.1 |
| COc1ccc(CCN2C3CCC2CC(NS(=O)(=O)c2cc(C)ccc2OC)C3)cc1OC (stereo not drawn) | -1.5 | -0.8 |
| O=C(c1cn[nH]c1-c1ccc(F)cc1)N1CCN(S(=O)(=O)c2ccccc2)CC1 | -10.9 | -8.8 |
| Fc1c(F)c(F)c(Cn2nnc(-c3ccccc3)n2)c(F)c1F | 6.2 | -1.5 |
| Cc1nc(CN(C(=O)c2ccccc2N2CCOCC2)C(C)C)no1 | 0.5 | 1.0 |
| COCCN(Cc1c(-c2ccccc2)nn(C)c1Oc1cccc(OC)c1)CC(O)c1ccccc1 (stereo not drawn) | 1.5 | 0.5 |
| O=C1CCCCCN1CCC(=O)N1CCOC(c2ccc(Cl)cc2)C1 (stereo not drawn) | 3.0 | 8.7 |
| CCc1nc2c(OCCC3CCCCC3)cccn2c1N(C)C(=O)c1ccccc1F | 1.7 | -6.7 |
| C=CCNC(=O)C(NC(=O)c1cccs1)C1CCN(C(=O)c2cccc(C)c2)CC1 (stereo not drawn) | 12.0 | 8.1 |
| CCOC(=O)c1nc2ccccc2nc1N1CCN(C(=O)COc2ccc(Cl)cc2)CC1 | -3.7 | 1.9 |
| O=c1c2ccccc2nc(CN2CCOCC2)n1Cc1nc(-c2ccc3ccccc3c2)cs1 | 6.9 | 3.4 |
| COCCNC(=O)C(C)(C)n1cc(-c2ccc3c(c2)OCO3)cn1 | 0.8 | 3.3 |
| O=C(Nc1ccccc1)C1CCCN(C(=O)COc2ccccc2F)C1 (stereo not drawn) | 4.9 | -2.3 |
| O=C(Nc1cc(-c2ccccc2)nn1-c1ccccc1)c1cc(C(F)(F)F)ccc1C(F)(F)F | 2.4 | 5.7 |
| O=C(c1cccc(F)c1)N(Cc1ccco1)Cc1nccn1Cc1ccccc1C(F)(F)F | 24.2 | 13.6 |
| COc1cc(C)nc(NCC(C)(C)N2CCS(=O)CC2)n1 | -2.3 | -1.2 |
| COCCC1(C(=O)N2CCOCC2)CCN(C(=O)OC(C)(C)C)C1 (stereo not drawn) | 0.2 | 1.0 |
| CS(=O)c1ccccc1NC(=O)CC1=CCCCC1 (stereo not drawn) | -5.9 | 2.5 |
| OCc1ccc(CN2CCc3[nH]c4c(Cl)cccc4c3C2)o1 | 5.8 | 10.1 |
| Fc1cccc(Oc2cc(N3CCCC3)ncn2)c1 | 0.2 | -8.5 |
| CC1(C)CC(=O)C2C(=Nc3ccccc3N(C(=O)Cc3ccccc3)C2c2ccc(Cl)cc2)C1 (stereo not drawn) | -3.2 | -3.2 |
| O=C(c1ccccc1-c1ncc[nH]1)N1CCOC(Cc2cccc(F)c2)C1 (stereo not drawn) | -5.9 | -5.5 |
| C=CCCC(O)CN(Cc1ccc(F)cc1)Cc1ccc2c(c1)OCO2 (stereo not drawn) | 7.7 | 3.7 |
| COCCNC(=O)Cn1nc2c(c1NC(=O)c1ccc(OC(C)C)cc1)CSC2 | 2.0 | -5.2 |
| Cc1cc(OC(=O)CNC(=O)OC(C)(C)C)c2c(-c3ccccc3)cc(=O)oc2c1 | -2.3 | -0.8 |
| CC(C)(C)c1cc(Cn2cnnc2)[nH]n1 | 1.1 | 1.1 |
| CC(C(=O)Nc1ccccn1)N1CCc2onc(-c3ccccc3F)c2C1 (stereo not drawn) | 20.6 | 26.7 |
| COc1ccccc1-n1c(Cc2ccccc2)nnc1SCc1nc(C(=O)N2CCC(Cc3ccccc3)CC2)cs1 | 7.7 | 0.3 |
| COc1ccccc1Oc1cc(C)nc(SCc2ccccc2F)n1 | 5.0 | -0.1 |

(listing goes on)
| molecule | NPYLR7 ag max-min | NPYLR7 ag |
| --- | --- | --- |
| COc1cc2c(cc1O)-c1ccccc1CN(C)C2 | 12.1 | 11.2 |
| CCOC(=O)c1ccc(N=c2scc(-c3ccc(OC)cc3)n2CCc2cccc(C(F)(F)F)c2)cc1 | -7.3 | -4.2 |
| CCOC(=O)[C@@H]1CCCC[C@@H]1NC(=O)C1CC(=O)N(N(C)c2ccccc2)C1 (stereo partly drawn) | -9.9 | -4.4 |
| C[C@H](c1ccccc1)N(CC(N)=O)Cc1ccc(OCC(F)(F)F)cc1 | 7.2 | 10.7 |
| COCCNC(=O)C(NC(=O)c1ccccc1Cl)C1CCN(C(=O)NC(C)(C)C)CC1 (stereo not drawn) | -1.2 | -0.6 |
| Cc1cccc(OS(=O)(=O)c2cn(C)c(=O)n(C)c2=O)c1C | 0.9 | 3.6 |
| O=C(c1ccc[nH]c1=O)N1CCCC1c1cccc(Br)c1 (stereo not drawn) | -18.4 | -15.2 |
| O=C(NCc1cccc(C(F)(F)F)c1)c1ccc2sc([C@H]3C[C@H](O)[C@@H](CO)O3)nc2c1 | 0.3 | 5.5 |
| OCC1OC(Nc2ccccn2)C(O)C(O)C1O (stereo not drawn) | -0.8 | 0.8 |
| CCOC(=O)N1CCN(Cc2nc(-c3cccs3)oc2C)CC1 | -11.7 | -6.4 |
| CCNC(=O)[C@@H]1C[C@H](N)CN1C(=O)C1CCN(C(=O)CC(C)C)CC1 | 3.5 | 7.2 |
| CCCCS(=O)(=O)NCCNc1ccc(C)nn1 | -21.1 | -13.0 |
| COc1ccccc1CN(Cc1ccc(F)cc1)Cc1nc(C(=O)N2CCN(C(C)=O)CC2)co1 | 16.9 | 19.4 |
| CC(C)C(=O)N(Cc1cc(NC(=O)C2CCCC2)ccc1N(C)C)C(C)c1ccccc1 (stereo not drawn) | 3.8 | -4.3 |
| Cc1[nH]nc(-c2ccc3c(c2)OCO3)c1NC(=O)CC(C)(C)C | 19.4 | 25.1 |
| Cc1ccccc1/C=C1/C(=N)N2N=C(Cc3ccccc3)SC2=NC1=O | -1.7 | -1.7 |
| Clc1ccc(C2=Nn3c(nnc3-c3ccccc3Br)SC2)s1 | 5.3 | 4.2 |
| Cc1cccn2c(=O)nc(SCC(=O)NC3CCCCC3)nc12 | -2.2 | 2.5 |
| COc1ccc(Nc2oc(-c3ccc(COc4ccccc4)o3)nc2C#N)cc1 | 20.7 | 0.7 |
| CCc1nc(N(CCC(=O)NCc2ccco2)Cc2ccccc2)c2ccccc2n1 | -8.3 | -10.9 |
| CCCc1cc(CNC(=O)c2ccc(N3CC(n4cccn4)C3)nc2)on1 | 4.9 | 5.9 |
| CCc1c(C)nn(-c2ccc(C(=O)Nc3cccc(Oc4ccccc4)c3)cc2)c1C | -11.5 | -2.6 |
| CNS(=O)(=O)c1ccc(C(=O)OC(C)c2nc(C(C)(C)C)no2)cc1 (stereo not drawn) | 1.2 | 2.9 |
| CC(c1ccc(S(N)(=O)=O)cc1)N(C)C(=O)c1cc2c(s1)CCCCC2 (stereo not drawn) | -0.4 | -0.5 |
| Fc1ccc(C2c3cccn3CCCN2Cc2ccccc2C(F)(F)F)cc1 (stereo not drawn) | 6.4 | 2.4 |
| COc1cccc(-c2cn[nH]c2C2CCN(C3CCOCC3)CC2)c1 | 8.0 | 11.2 |

Part of the list above, with values under each structure:
Every second line gives: NPYLR7 ag max-min	NPYLR7 ag
- COCCNC(=O)C(NC(=O)c1ccccc1Cl)C1CCN(C(=O)NC(C)(C)C)CC1 (stereo not drawn)
  -1.2	-0.6
- Cc1cccc(OS(=O)(=O)c2cn(C)c(=O)n(C)c2=O)c1C
  0.9	3.6
- O=C(c1ccc[nH]c1=O)N1CCCC1c1cccc(Br)c1 (stereo not drawn)
  -18.4	-15.2
- O=C(NCc1cccc(C(F)(F)F)c1)c1ccc2sc([C@H]3C[C@H](O)[C@@H](CO)O3)nc2c1
  0.3	5.5
- OCC1OC(Nc2ccccn2)C(O)C(O)C1O (stereo not drawn)
  -0.8	0.8
- CCOC(=O)N1CCN(Cc2nc(-c3cccs3)oc2C)CC1
  -11.7	-6.4
- CCNC(=O)[C@@H]1C[C@H](N)CN1C(=O)C1CCN(C(=O)CC(C)C)CC1
  3.5	7.2
- CCCCS(=O)(=O)NCCNc1ccc(C)nn1
  -21.1	-13.0
- COc1ccccc1CN(Cc1ccc(F)cc1)Cc1nc(C(=O)N2CCN(C(C)=O)CC2)co1
  16.9	19.4
- CC(C)C(=O)N(Cc1cc(NC(=O)C2CCCC2)ccc1N(C)C)C(C)c1ccccc1 (stereo not drawn)
  3.8	-4.3
- Cc1[nH]nc(-c2ccc3c(c2)OCO3)c1NC(=O)CC(C)(C)C
  19.4	25.1
- Cc1ccccc1/C=C1/C(=N)N2N=C(Cc3ccccc3)SC2=NC1=O
  -1.7	-1.7
- Clc1ccc(C2=Nn3c(nnc3-c3ccccc3Br)SC2)s1
  5.3	4.2
- Cc1cccn2c(=O)nc(SCC(=O)NC3CCCCC3)nc12
  -2.2	2.5
- COc1ccc(Nc2oc(-c3ccc(COc4ccccc4)o3)nc2C#N)cc1
  20.7	0.7
- CCc1nc(N(CCC(=O)NCc2ccco2)Cc2ccccc2)c2ccccc2n1
  -8.3	-10.9
- CCCc1cc(CNC(=O)c2ccc(N3CC(n4cccn4)C3)nc2)on1
  4.9	5.9
- CCc1c(C)nn(-c2ccc(C(=O)Nc3cccc(Oc4ccccc4)c3)cc2)c1C
  -11.5	-2.6
- CNS(=O)(=O)c1ccc(C(=O)OC(C)c2nc(C(C)(C)C)no2)cc1 (stereo not drawn)
  1.2	2.9
- CC(c1ccc(S(N)(=O)=O)cc1)N(C)C(=O)c1cc2c(s1)CCCCC2 (stereo not drawn)
  -0.4	-0.5
- Fc1ccc(C2c3cccn3CCCN2Cc2ccccc2C(F)(F)F)cc1 (stereo not drawn)
  6.4	2.4
- COc1cccc(-c2cn[nH]c2C2CCN(C3CCOCC3)CC2)c1
  8.0	11.2

Not all compounds are listed; count on the stated rates, not on these rows.
